# High-throughput results (PubChem BioAssay)
# Mtb hypoxia rep = inhibitors of hypoxia-regulated fluorescent reporter in Mycobacterium tuberculosis. fluorescence inhibition, % (concentration not given with the values). M. tuberculosis hypoxia-regulated fluorescent reporter, fluorescence. hit rate 0.1% among 300,000;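 active = 35 to 45% if threefold the growth effect, above 45% if 1.5-fold the growth effect; inactive = the rest, general growth blockers included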;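 also: wells of about 50 µL received 100 nL stock; 0% = vehicle wells and 100% = reference inhibitor wells; whole bacteria with a GFP reporter of the hypoxia response; strong numbers were not always called active; many hits fall short of the cut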
# RN4220 kill = kills Staphylococcus aureus RN4220; S. aureus RN4220 growth, OD600, 16 h; hit rate 0.33% among 330,000; inhibition, % (concentration not given with the values);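 active = z-score of -3 or lower and OD600 up to 0.18 on both plates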;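 also: plate controls were untreated cells for no effect and reference antibiotic for full effect; stock transfer was 100 nL into about 80 µL; one replicate is shown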
# BJeLR lethal = kills HRASV12-expressing BJeLR cells. BJeLR (HRASV12) viability, CellTiter-Glo ATP luminescence, 48 h; reference of the scale not given here. inhibition, % (concentration not given with the values). hit rate 0.17% among 300,000. AID 1554;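 active = replicate mean above 50%; inconclusive = above 50% but judged a plate artefact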;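 also: 50 nL library stock added to about 25 µL; numbers are from one replicate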
# Autofluor counter = compound fluorescence in toxin protease inhibitor counterscreen | hit rate 3.1% among 360,000 | compound autofluorescence counterscreen, microsphere flow cytometry; stronger effect = higher value | fluorescence intensity (concentration not given with the values);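 active = at least 3 SD above the mean of all compounds, about 16000 in these data; inconclusive = too few beads counted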;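 also: 100 nL of 1 mM stock went into each well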
# Sa ugtP lethal = kills S. aureus RN4220 lacking UgtP; S. aureus RN4220 ugtP deletion, OD600 growth, 16 h; some inactives read as strong as hits; growth inhibition, % (test concentration not listed); hit rate 0.54% among 330,000; AID 1259309;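 active = z-score under -3 and OD600 up to 0.15 on both plates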;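 also: plate controls were untreated wells for no effect and antibiotic for full effect; wells of about 80 µL received 100 nL stock; the first replicate is given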
# PrP UTR inh = inhibition of PrP 5' UTR reporter expression; cell-based PrP 5' UTR mRNA reporter, plate reader; hit rate 0.35% among 340,000; inhibition, % (no concentration beside the values); AID 488862;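 active = every replicate at 50% or more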;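 also: 0 = median of the neutral control wells; tested in H4 reporter cells; numbers are from one replicate; inactives centre near -14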
# Mtb hypoxia rep growth = recorded beside Mtb hypoxia rep, whose call it bears; growth inhibition, %; measured here: M. tuberculosis growth (absorbance);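 0% = vehicle and 100% = reference antibiotic; read after six days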
# Active calls of the source: *; ? = inconclusive; . = no result given.
SMILES,Mtb hypoxia rep,Mtb hypoxia rep growth,RN4220 kill,BJeLR lethal,Autofluor counter,Sa ugtP lethal,PrP UTR inh
O=C(COC(=O)CCC1CCCC1)NCc1ccc(Cl)cc1,1,2,9.9,3,3213,6,-7
Cc1ccc2cc(CN(C(=O)c3cccs3)c3ccccc3)c(=O)[nH]c2c1,2,-6,3.6,12,4873,6,-20
COc1ccc(CC(=O)N(C)CC(=O)Nc2ccccc2C(F)(F)F)cc1S(=O)(=O)N1CCOCC1,-7,5,-3.2,-1,6019,-3,-22
COC(=O)c1cc(OC)c(OC)cc1NC(=O)CN1CCCCC1,8,-3,2.6,0,22761*,9,-4
CC1CCCC(C)N1S(=O)(=O)c1ccc(Cl)cc1 (stereo unspecified),0,9,0.7,-2,4114,2,-41
Cn1c(=O)c2c(ncn2CC(=O)N/N=C/C=C/c2ccccc2)n(C)c1=O,.,.,.,-6,2118,.,-13
COc1ccc(Cl)cc1NC(=O)CSc1nncn1-c1cccnc1,5,9,1.0,-1,4252,-3,0
COc1ccc(S(=O)Cc2ccc(C(=O)N3CCN(c4cccc(C)c4C)CC3)o2)cc1 (stereo unspecified),1,9,2.2,12,5329,6,-21
N#CCC(=O)NCCCc1ccccc1,-5,1,1.0,-10,6691,-2,-26
Cc1ccc2nc(SCC(=O)NCC3CCCO3)c(C#N)cc2c1 (stereo unspecified),.,.,-6.3,-4,2353,-3,-3
CNC(=O)/C(C#N)=C/c1cn(CC(=O)OC)c2ccccc12,-8,0,-5.3,1,2939,-5,-23
COc1ccc(C=NNC(=O)c2c(Br)cnn2C)c2ccccc12,9,8,2.3,.,.,11,.
Cn1nnc(NC(=O)CSc2ncn[nH]2)n1,0,6,4.6,-3,3719,-3,-22
COc1ccc(OCc2cc(C(=O)N3CCCN(C(C)=O)CC3)no2)c(Cl)c1,8,4,2.8,-11,4774,3,-24
CCOC(=O)Nc1nnc(Cc2ccc(Cl)c(Cl)c2)s1,7,1,6.4,-3,4326,-2,7
Cc1ccc2nsnc2c1S(=O)(=O)N(Cc1cc2cccc(C)c2[nH]c1=O)CC1CCCO1 (stereo unspecified),4,0,6.8,23,11527,11,-15
NC(=O)c1cc2ccccc2oc1=NCc1ccccc1,.,.,3.9,-7,2443,1,-23
COc1ccc(S(=O)(=O)N[C@@H](C)C(=O)OCC(=O)Nc2cc3oc4ccccc4c3cc2OC)cc1,1,1,1.7,21,2559,-12,-23
CCOC(=O)C1(CCc2ccccc2)CCN(C(=O)C2CCOCC2)CC1,3,1,0.4,6,4663,-3,-23
CCOC(=O)Cn1ccc(O)c(Cc2ccc(Cl)cc2Cl)c1=O,.,.,12,-6,2740,-7,9
O=C(Cc1ccc(F)cc1)N(c1ccc(F)cc1)C1C=CS(=O)(=O)C1 (stereo unspecified),8,-1,2.7,3,8546,4,-55
Cc1ccc(C)c(C(=O)c2c(C)nc3sccn23)c1,.,.,2.7,.,2710,0,-19
CC(=NNC(=O)CCC(=O)Nc1ccc(C)c(C)c1)C1CC1,17,0,3.0,.,.,17,.
CCOC(=O)C1CCN(C(=O)c2cc3c(=O)n4ccccc4nc3s2)CC1,1,1,2.3,1,4631,5,-8
N#Cc1c(N)nc2c(c1-c1cccc(O)c1)CCCCCC2,10,13,11,-4,11233,13,-11

# More entries follow:
SMILES,Mtb hypoxia rep,Mtb hypoxia rep growth,RN4220 kill,BJeLR lethal,Autofluor counter,Sa ugtP lethal,PrP UTR inh
O=[N+]([O-])c1cccc(-c2c[n+]3c(n2-c2ccccc2)SCC3)c1,9,4,3.7,.,3909,3,-27
COc1cccc(C=Nn2c(-c3ccco3)nc3ccccc3c2=O)c1OC,5,8,7.0,.,.,-17,.
Cc1nc2ccccc2n2c(-c3ccccc3)c3c(=O)n(C)c(=O)n(C)c3c12,-10,1,3.1,-7,4409,-6,-7
CC1CCCN(C2=NC(=O)C(=Cc3cn(-c4ccccc4)nc3-c3cccc(S(=O)(=O)N(C)C)c3)S2)C1 (stereo unspecified),-2,14,6.9,.,.,-9,.
O=P(Cc1cccc[n+]1[O-])(c1ccccc1)c1ccccc1,13,-1,1.7,4,3837,-2,-7
CCC(C)n1[nH]c(=O)cc1N (stereo unspecified),-2,1,-2.4,0,11045,-3,-19
C/C(O)=c1/cnc2nc3ccccc3n2c1=O,7,10,5.1,2,2154,-2,-26
C[C@H](NC(=O)c1nc[nH]c1C(=O)NCCCCCNC(=O)OC(C)(C)C)C(=O)OC(C)(C)C,.,.,.,6,4471,.,-25
C=CCNC(=O)/C(C#N)=C/c1ccc(C)o1,9,9,6.9,-5,4750,2,-22
CCCCNC(=O)CC1SC(=NCC)N(CC)C1=O (stereo unspecified),.,.,-0.6,4,3158,5,-14
Cc1ccc(NC(=O)CSc2nnc(C3CC3)n2N)cc1S(=O)(=O)N1CCOCC1,2,4,2.3,-18,3802,6,-9
COc1ccccc1NS(=O)(=O)c1ccc(C)c(NS(=O)(=O)c2cc(C(=O)O)cc(C)c2C)c1,0,8,-0.3,-7,5369,3,0
CN(C)S(=O)(=O)c1cc(C(=O)NCCCn2ccc3ccccc32)ccc1Cl,2,5,0.8,3,4171,-7,-8
COc1cc(C2C(C#N)=C(N)Oc3c2ccc2ccccc32)ccc1OCC(=O)Nc1cccc(C)c1 (stereo unspecified),7,0,7.6,-4,7216,-25,-31
N#CCSc1nc2sc3c(c2c(=O)n1C1CCCCC1)CCCC3,.,.,-9.3,-12,2663,30,-10
O=S(=O)(c1ccccc1)N(CC(O)Cn1c2ccccc2c2ccccc21)c1ccccc1 (stereo unspecified),.,.,-2.8,9,2799,-14,-16
CCOC(=O)C1CN(S(=O)(=O)c2ccc(OC)cc2)c2cc(Cl)ccc2O1 (stereo unspecified),-7,-8,5.3,3,3048,12,-10
COc1ccc(C2NC(c3ccc(OC)cc3)C([N+](=O)[O-])C(C)(C)C2[N+](=O)[O-])cc1 (stereo unspecified),8,-2,-0.9,-3,4300,10,-24
CCOC(=O)C(=O)Nc1ccccc1C(=O)Nc1ccc(OC)cc1,0,5,4.8,-2,19641*,8,3
CCc1ccc(OCCSc2nc3ccccc3n2CC(=O)O)cc1,16,14,2.9,-13,3558,5,-19
O=C(CSc1nnc2c(n1)[nH]c1ccccc12)N1CCCCC1,3,0,0.8,-10,4752,-1,-11
COC(=O)c1cn(Cc2cccc(C)c2)nn1,24,20,4.5,-2,7478,5,-12
O=C(Nc1ccc(OCC(=O)N2CCOCC2)cc1)c1cncc(Br)c1,8,5,6.9,4,10510,-3,-15
CSc1nc2n(n1)C(C)C1=C(CCCC1=O)N2 (stereo unspecified),-2,7,1.0,-1,5377,6,-27
Cc1cccc(-n2c(C)nc3sccc3c2=O)c1,1,8,5.6,-4,4264,4,-15

# (more compounds)
SMILES,Mtb hypoxia rep,Mtb hypoxia rep growth,RN4220 kill,BJeLR lethal,Autofluor counter,Sa ugtP lethal,PrP UTR inh
O=C(NCCc1ccccc1)c1cccc([N+](=O)[O-])c1,.,.,2.1,-10,2258,2,-51
O=C(c1ccco1)N1CCN(S(=O)(=O)c2cccc(C(F)(F)F)c2)CC1,1,-1,4.2,0,?,-4,-12
O=C(O)c1cccc(NC(=O)C2C3C=CC(C3)C2C(=O)OCC(F)(F)C(F)F)c1 (stereo unspecified),.,.,0.6,6,4695,-4,-15
Cc1nnc(N2CCc3ccccc3C2)[nH]c1=O,.,.,0.3,2,4735,1,-7
CC(CC(=O)Nc1ccc(F)cc1)S(=O)(=O)c1ccc2c(c1)NC(=O)CO2 (stereo unspecified),4,8,2.2,-18,4847,4,-14
O=C(COC(=O)c1c(Cl)cccc1Cl)NC1CCCCC1,0,14,3.0,-6,4026,2,-18
CCNC(=O)CN(c1ccc(CC)cc1)S(C)(=O)=O,3,-1,0.4,-2,23318*,-7,-33
CC1=Nc2cc(C(=O)NCc3ccco3)ccc2Sc2ccc(C)cc21,7,8,0.6,54*,10409,-11,61*
CCOC(=O)Cn1cc(C=NNC(=O)c2ccc(C#N)cc2F)c2ccccc21,7,3,-0.9,.,.,8,.
O=C(C[n+]1cc(-c2ccccc2)n2c1CCC2)OCc1ccccc1,0,4,1.9,-8,1998,0,-22
CCCCN(CC)CCCNC(=O)c1cc2cc3ccc(C)cc3nc2o1,13,2,-0.4,2,4834,4,4
CCOC(=O)C1=C(C)NC2=C(C(=O)CCC2)C1c1cc(OC)ccc1OC (stereo unspecified),-3,-2,4.2,5,8830,4,-9
Cc1ccc(OCC(=O)N/N=C/c2c[nH]c3ccccc23)c([N+](=O)[O-])c1,.,.,.,-4,8652,.,-10
Cc1ccc(NC(=O)C2CCN(C(=O)c3ccccc3C)CC2)nc1,10,0,2.6,8,?,5,-15
Cc1ccc(NC(=O)C2(c3ccccc3)CCOCC2)cc1,19,-3,3.2,0,3124,-3,-8
C#CCOCCOCCOCCNc1nc(N2CCN(C(=O)C(Cc3ccc(O)cc3)n3cc(C(N)C(C)CC)nn3)CC2)nc(N2CCN(C(=O)C(C(C)CC)n3cc(C(N)CO)nn3)CC2)n1 (stereo unspecified),4,4,4.9,.,.,1,.
CCOc1cc(C=NNC(=O)CN2CCOCC2)ccc1OCc1ccccc1,1,14,0.8,.,.,5,.
Cn1c2ccccc2c2cnn(CC(=O)Nc3ccc(F)cc3F)c(=O)c21,8,9,1.2,-1,4700,4,-12

# Some of the entries above, reformatted:
# Values run as follows: Mtb hypoxia rep, Mtb hypoxia rep growth, RN4220 kill, BJeLR lethal, Autofluor counter, Sa ugtP lethal, PrP UTR inh
> CSc1nc2n(n1)C(C)C1=C(CCCC1=O)N2 (stereo unspecified)
    -2, 7, 1.0, -1, 5377, 6, -27
> Cc1cccc(-n2c(C)nc3sccc3c2=O)c1
    1, 8, 5.6, -4, 4264, 4, -15
> O=C(NCCc1ccccc1)c1cccc([N+](=O)[O-])c1
    ., ., 2.1, -10, 2258, 2, -51
> O=C(c1ccco1)N1CCN(S(=O)(=O)c2cccc(C(F)(F)F)c2)CC1
    1, -1, 4.2, 0, ?, -4, -12
> O=C(O)c1cccc(NC(=O)C2C3C=CC(C3)C2C(=O)OCC(F)(F)C(F)F)c1 (stereo unspecified)
    ., ., 0.6, 6, 4695, -4, -15
> Cc1nnc(N2CCc3ccccc3C2)[nH]c1=O
    ., ., 0.3, 2, 4735, 1, -7
> CC(CC(=O)Nc1ccc(F)cc1)S(=O)(=O)c1ccc2c(c1)NC(=O)CO2 (stereo unspecified)
    4, 8, 2.2, -18, 4847, 4, -14
> O=C(COC(=O)c1c(Cl)cccc1Cl)NC1CCCCC1
    0, 14, 3.0, -6, 4026, 2, -18
> CCNC(=O)CN(c1ccc(CC)cc1)S(C)(=O)=O
    3, -1, 0.4, -2, 23318*, -7, -33
> CC1=Nc2cc(C(=O)NCc3ccco3)ccc2Sc2ccc(C)cc21
    7, 8, 0.6, 54*, 10409, -11, 61*
> CCOC(=O)Cn1cc(C=NNC(=O)c2ccc(C#N)cc2F)c2ccccc21
    7, 3, -0.9, ., ., 8, .
> O=C(C[n+]1cc(-c2ccccc2)n2c1CCC2)OCc1ccccc1
    0, 4, 1.9, -8, 1998, 0, -22
> CCCCN(CC)CCCNC(=O)c1cc2cc3ccc(C)cc3nc2o1
    13, 2, -0.4, 2, 4834, 4, 4
> CCOC(=O)C1=C(C)NC2=C(C(=O)CCC2)C1c1cc(OC)ccc1OC (stereo unspecified)
    -3, -2, 4.2, 5, 8830, 4, -9
> Cc1ccc(OCC(=O)N/N=C/c2c[nH]c3ccccc23)c([N+](=O)[O-])c1
    ., ., ., -4, 8652, ., -10
> Cc1ccc(NC(=O)C2CCN(C(=O)c3ccccc3C)CC2)nc1
    10, 0, 2.6, 8, ?, 5, -15
> Cc1ccc(NC(=O)C2(c3ccccc3)CCOCC2)cc1
    19, -3, 3.2, 0, 3124, -3, -8
